VDR inhibitor: inhibitors of human vitamin D receptor | 400,000 tested, 0.93% active | Potency, µM, inactives show max response, negative = inhibition, most hits filed as inhibitors | P11473 | VDR-SRC2-3 peptide fluorescence polarization, 2 h; active means well fitted inhibition curve with a large enough effect; inconclusive means small, poorly fitted or top-dose-only effect, or another doubt; inactive means no such curve, though single readings can be large or run the other way; further: series mostly up to about 120 µM
Target sequence (P11473 whole entry, looked up): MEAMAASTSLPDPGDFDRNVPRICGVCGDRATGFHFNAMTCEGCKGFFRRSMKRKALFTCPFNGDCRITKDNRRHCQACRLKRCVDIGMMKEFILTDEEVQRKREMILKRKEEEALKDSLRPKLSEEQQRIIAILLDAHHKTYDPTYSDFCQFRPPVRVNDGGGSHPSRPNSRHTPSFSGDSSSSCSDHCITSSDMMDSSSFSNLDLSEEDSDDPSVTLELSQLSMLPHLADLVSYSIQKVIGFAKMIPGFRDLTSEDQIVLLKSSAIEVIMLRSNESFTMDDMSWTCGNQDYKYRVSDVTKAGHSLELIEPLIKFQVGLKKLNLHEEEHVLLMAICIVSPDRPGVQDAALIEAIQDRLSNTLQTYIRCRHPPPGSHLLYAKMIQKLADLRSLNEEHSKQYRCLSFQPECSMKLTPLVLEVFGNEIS
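Compounds are added to VDR with labelled SRC2-3 coactivator peptide and held 2 h at room temperature. Inhibition of the VDR–peptide interaction is then read as a change in fluorescence polarization.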
Numbers without * were called inactive; ? = inconclusive. On the % scale 0 is the no-effect control and ±100 the full control effect; potency means the concentration at half of the fitted maximal effect.

nr	Structure	VDR inhibitor
1	COc1cc(-c2nc3n(n2)C(c2ccc(F)cc2)C(C(N)=O)=C(C)N3)cc(OC)c1OC (stereo not drawn)	-7%
2	COc1cccc(C(=O)NNC(=O)c2ccccc2Br)c1	-8%
3	Cc1ccc(CC(=O)N2CCN(c3ccccn3)CC2)cc1	-8%
4	Cc1occc1C(=O)N/N=C/C1=C(N2CCOCC2)C(=C/c2ccc(Cl)cc2Cl)/CC1	1%
5	CCNc1ncc2nc(-c3ccc(Cl)cc3)c(=O)n(-c3ccccc3)c2n1	-15%
6	CN(c1ccc(C(=O)NCCSC(C)(C)C)cc1)S(C)(=O)=O	9%
7	COc1ccc(OC)c(NC(=O)N(C)CCc2c(C)nn(C)c2C)c1	7%
8	COc1ccc(CNC(=O)c2cc(S(=O)(=O)N3CCCC3)cn2C)cc1	-10%
9	O=C(Cc1ccc(-n2cccc2)cc1)N1CCc2ccccc21	-5%
10	CCCCOc1ccc(C(=O)NCC(=O)OCC(=O)c2c(N)n(C)c(=O)n(C)c2=O)cc1	-5%
11	COCCC(=O)N1CCC(Oc2ccc(C(=O)N3CCCC(CCCO)C3)cc2)CC1 (stereo not drawn)	-6%
12	Cc1nc(-c2ccc(S(=O)(=O)NCc3ccc(F)cc3)cc2)co1	2%
13	COc1ccc(C(=O)C(/C=N/O)=N/Nc2ccc(F)cc2)cc1	-6%
14	CCOc1ccc(CC(=O)Nc2ccc(-c3ccc4nnc(C)n4n3)cc2)cc1	0%
15	Cc1ccc2c(=O)cc(CSc3ccccc3)[nH]c2c1C	0%
16	CCn1cc(C(=O)N2CCN(c3cc(Cl)ccc3C)CC2)c2cc(OC)c(OC)cc2c1=O	-24%
17	CCOC(=O)c1cccc(NC(=O)CS(=O)(=O)Cc2nc(-c3cccc(OC)c3)oc2C)c1	16%
18	CCC(C)NC(=O)CSc1nnc(-c2ccncc2)n1-c1ccc(OC)cc1 (stereo not drawn)	3%
19	COc1cccc(CN2CCC(n3nccc3NC(=O)CCOc3ccccc3)CC2)c1	-5%
20	O=c1oc(-c2ccccc2)c(-c2ccccc2)c2ccccc12	10%
21	CC(=O)N1CCN(CCN=CC2=C(O)CC(c3ccco3)CC2=O)CC1 (stereo not drawn)	1%
22	COc1cccc(CC(NC(C)=O)C(=O)NC2CCN(S(=O)(=O)c3ccc(NC(C)=O)cc3)CC2)c1 (stereo not drawn)	-12%
23	O=C1/C(=C/c2ccc(O)cc2)CCc2ccc([N+](=O)[O-])cc21	0%
24	CCCc1cc(=O)[nH]c(SCC(=O)N(CCC#N)c2ccc3c(c2)OCCO3)n1	-7%
25	COc1cc([N+](=O)[O-])ccc1NC(=O)Cn1ccsc1=N	-17%
26	CCn1c(COc2ccccc2C)nnc1SCC(=O)CC(=O)Nc1ccccc1OC	-1%
27	COC(=O)CN(C)C1CC(=O)N(c2ccc(Cl)cc2)C1=O (stereo not drawn)	-1%
28	O=C(CN1CCN(Cc2ccc(F)cc2)C1=O)NCc1ccccc1Cl	-3%
29	FC(F)(F)c1cc(CN2CC3(CCNCC3)C2)cc(C(F)(F)F)c1	?
30	COc1ccc(CNC(=O)C2COc3ccccc3O2)cc1 (stereo not drawn)	0%
31	Cc1ccc(C(=O)Oc2cccc(NC(=O)c3ccco3)c2)cc1S(=O)(=O)N1CCC(C)CC1	12%
32	Cc1cc(=O)oc2cc(OCCC[n+]3ccccc3)ccc12	10%
33	COC(=O)c1ccc(C)c(-n2c(=O)n(Cc3ccccc3)c(=O)c3[nH]cnc32)c1	-3%
34	COC(=O)N1[C@H]2CC[C@@]3(C)CC(=O)C[C@]1(C)C3c1ccccc12	1%
35	COC(=O)CS(=O)(=O)c1cc([N+](=O)[O-])ccc1NC(=O)OC	5%
36	CCn1c(CN2CCN(c3cccc(C)c3C)CC2)n[nH]c1=S	?
37	CN1C(=S)SC(/[N+]([O-])=C\c2cccs2)C1(C)C (stereo not drawn)	-9%
38	Cc1nc2sc(C(=O)Nc3ccccc3)c(N)c2c(C)c1[N+](=O)[O-]	-20%
39	Cc1ccc(C(=O)Nc2c(-c3cccs3)nc3cc(C)ccn23)cc1	-8%
40	COC(=O)c1ccc(NC(=O)C(=O)N2CCN(C(=S)Nc3ccccc3OC)CC2)cc1	-7%
41	COc1ccc(CNC(=O)C2CCN(c3nc4ccccc4[nH]3)CC2)cc1OC	14%
42	CCOC(=O)C1(Cc2cccc(OC)c2)CCCN(Cc2cc(OC)c(O)c(OC)c2)C1 (stereo not drawn)	-7%
43	CN(C)S(=O)(=O)c1ccc(Nc2nc(C3CC3)nc3c2nnn3Cc2ccccc2Cl)cc1	-7%
44	CC(=O)Nc1cccc(NC(=O)c2ccc3c(c2)CCN3S(C)(=O)=O)c1	-6%
45	O=C(CSc1nc(=O)n2ccccc2n1)OCc1ccccc1	-11%
46	Cc1ccc(CNC(=O)Cn2c(=O)ccc3cc(S(=O)(=O)N4CCCC4)ccc32)cc1	-11%
47	COc1cc(Cl)c(C)cc1NC(=O)Cn1cc(S(=O)(=O)N2CCC(C)CC2)c2ccccc2c1=O	-7%
48	CC1CCN(c2c(NCC3CCC(C(=O)NCCc4ccccc4)CC3)c(=O)c2=O)CC1 (stereo not drawn)	11%
49	Cc1ccc2nc(NC(=O)c3ccccc3F)sc2c1	-21%
50	O=C(Nc1ccc2sc3ccccc3c(=O)c2c1)c1ccccc1Cl	9%

A draw from above in order of length of the SMILES, highest first:
nr	Structure	VDR inhibitor
48	CC1CCN(c2c(NCC3CCC(C(=O)NCCc4ccccc4)CC3)c(=O)c2=O)CC1 (stereo not drawn)	11%
41	COc1ccc(CNC(=O)C2CCN(c3nc4ccccc4[nH]3)CC2)cc1OC	14%
26	CCn1c(COc2ccccc2C)nnc1SCC(=O)CC(=O)Nc1ccccc1OC	-1%
27	COC(=O)CN(C)C1CC(=O)N(c2ccc(Cl)cc2)C1=O (stereo not drawn)	-1%

New compounds follow.
nr	Structure	VDR inhibitor
51	Fc1cccc(-c2cc3nc4c(c(N5CCC6(CC5)OCCO6)n3n2)CCCC4)c1	14%
52	CN=C1C=CC(=C(c2ccc(N(C)C)cc2)c2ccc(N(C)C)cc2)C=C1	40µM*
53	COC(=O)c1ccc(CSc2ncn[nH]2)o1	-7%
54	CCc1ccc(NC(=O)Nc2ccc3c(c2)CCC3)cc1	-16%
55	CC(C)N=C1NN=C(c2ccc(Cl)c(Cl)c2)CS1	?
56	COc1cccc(Nc2ncnc3nc[nH]c23)c1	-17%
57	CSc1ccccc1NC(=O)Cn1nc([N+](=O)[O-])cc1C	4%
58	Cc1ccc(C(=O)N2CCCC2)c(F)c1F	45µM*
59	Cc1cc(Cl)c(S(=O)(=O)Nc2cc(S(=O)(=O)N3CCOCC3)ccc2F)cc1OCC(N)=O	-2%
60	O=C(Nc1ccc(N2CCOCC2)nc1)c1c(F)cccc1F	1%
61	O=c1c2sccc2nc(SCc2cc(=O)n3cc(Br)ccc3n2)n1Cc1ccccn1	-1%
62	O=C1NC(Cc2c[nH]c3ccccc23)C(=O)N1c1ccc(F)cc1 (stereo not drawn)	-10%
63	COc1nc(C)nc2c1sc(=S)n2C	7%
64	O=C(NCCCn1ccnc1)c1cc2c(s1)CCCCC2	17%
65	O=C(NCc1ccccc1)c1ccc(-c2ccccc2F)o1	8%
66	CN(C)c1ccc(NC(=O)c2cnsn2)cc1	4%
67	CCn1cc(/C=C(\NC(=O)c2ccc(OC)c(OC)c2)C(=O)NCCN2CCOCC2)c2ccccc21	-21%
68	COc1cccc(C(=O)OCC(=O)Nc2ccccc2N2CCOCC2)c1	-10%
69	CCN1CC2([N+](=O)[O-])CC=C(OC)C([N+](=O)[O-])(C1)C2 (stereo not drawn)	6%
70	CCC(C)NC(=O)CCc1c(C)nc2c(c(C)nn2-c2ccc(C)cc2)c1C (stereo not drawn)	4%
71	Cc1cc2c3c(c1)C(C)(c1ccccc1)CC(C)(C)N3C(=O)C21C(C#N)=C(N)OC2=C1C(=O)CC(C)(C)C2 (stereo not drawn)	11%
72	COc1cccc(-c2nc(CCl)cs2)c1	-26%
73	COC(=O)C1=C(C)NC(=O)/C1=C/c1ccc(CNS(=O)(=O)c2ccc(C)cc2)o1	5%
74	CCSc1ncc(Cl)c(C(=O)Nc2ccccc2)n1	6%
75	COC(=O)c1cncc(O)c1	9%
76	CCc1ccc(NS(=O)(=O)c2cccc3nsnc23)cc1	-7%
77	Cc1ccc(S(=O)(=O)N2CCN(Cc3cc(=O)n4nc(-c5ccccc5Cl)sc4n3)CC2)cc1	-2%
78	Cc1cc(NC(=O)COC(=O)C(Nc2ccc(C(F)(F)F)cc2Cl)C(C)C)no1 (stereo not drawn)	5%
79	CCCCc1c(C)c2ccc(OCC(C)=O)cc2oc1=O	16%
80	Nc1c(Nc2ccccc2)c2ccccc2oc1=O	-17%
81	O=S(=O)(c1ccccc1)N1CCC[C@@]2(CCN(c3ccncc3)C2)C1	7%
82	COc1cc(SC)ccc1C(=O)N(Cc1ccccc1)c1ccccc1	-16%
83	COCCNC(=O)/C(C#N)=C/C(C)=C/c1ccccc1	-15%
84	N#CCSc1nnc(-c2ccccc2)c(-c2ccccc2)n1	5%
85	Cc1cc(C)cc(N2C(=O)C3CCCN3C2=S)c1 (stereo not drawn)	-16%
86	Cc1ccc(S(=O)(=O)NCCS(=O)(=O)N2CCN(c3ccc(F)cc3)CC2)cc1	-1%
87	OCCN1CCN(CC(O)COc2ccc3c(c2)OCO3)CC1 (stereo not drawn)	-5%
88	COc1ccc(CCNc2ncnc3sccc23)cc1OC	-12%
89	Cc1cccc(NC(=S)N(C)Cc2cn(C)c3ccccc23)c1	-14%
90	COc1cccc(CNC(=O)C2CC(=O)N(C3CCCCCCC3)C2)c1 (stereo not drawn)	5%
91	Cn1c(=O)c(C(=O)CN2CCN(Cc3ccc4c(c3)OCO4)CC2)c(N)n(Cc2ccccc2)c1=O	-3%
92	O=C(NCc1ccco1)c1ccc2c(c1)N(Cc1ccc(Cl)cc1)C(=O)c1ccccc1S2=O (stereo not drawn)	-10%
93	COc1ccc(C(=O)NC(CCSC)C(=O)NCc2nnc3ccccn23)cc1 (stereo not drawn)	11%
94	CCOC(=O)C1CCCN(C(=O)c2cccc(S(=O)(=O)N3CCOCC3)c2)C1 (stereo not drawn)	0%
95	CC12CN3CCN(CC(C3)/C1=N/NC(=O)Nc1ccccc1)C2	-14%
96	COc1ccc(C(=O)Cn2c(NCCO)nc3ccccc32)cc1	12%
97	O=C(CCS(=O)(=O)c1cccc2nonc12)Nc1c(F)cccc1F	-29%
98	C/C(COc1ccccc1)=N\NC(=O)c1nnn(-c2nonc2N)c1CSc1ccccc1	-27%
99	O=[N+]([O-])C(=C1Nc2ccccc2N1)C(Cl)=C(Cl)Cl	?
100	O=C(O)[C@]1(S(=O)(=O)c2ccccc2)C[C@@H]2ON=C(c3cccc(Br)c3)[C@@H]2C1	-23%

Overlap with the part before: four compounds, followed by the next part.
nr	Structure	VDR inhibitor
97	O=C(CCS(=O)(=O)c1cccc2nonc12)Nc1c(F)cccc1F	-29%
98	C/C(COc1ccccc1)=N\NC(=O)c1nnn(-c2nonc2N)c1CSc1ccccc1	-27%
99	O=[N+]([O-])C(=C1Nc2ccccc2N1)C(Cl)=C(Cl)Cl	?
100	O=C(O)[C@]1(S(=O)(=O)c2ccccc2)C[C@@H]2ON=C(c3cccc(Br)c3)[C@@H]2C1	-23%
101	COc1ccc(NC(=S)N2CCc3ccccc32)cc1OC	-21%
102	COc1cccc(CC2(CO)CCCN(Cc3cc4ccccc4[nH]3)C2)c1 (stereo not drawn)	9%
103	O=C(OCC#CCSc1nc2ccccc2s1)c1ccco1	-2%
104	COc1ccc(S(=O)(=O)Nc2ccc3oc4c(c3c2)C(=O)CC(C)(C)C4)cc1	-2%
105	CC(=O)Nc1ccc(NC(=O)C(C)OC(=O)CCCOc2ccc(Cl)cc2C)cc1 (stereo not drawn)	-9%
106	CN(C)C1(CNC(=O)C2CCC(=O)N(Cc3ccc(Cl)cc3)C2)CCCCC1 (stereo not drawn)	5%
107	CCCCC/C=C\C[C@@H](O)/C=C/C=C\CCC(=O)O	2%
108	Cc1ccccc1NCC(=O)N/N=C/C(Br)=C/c1ccccc1	-19%
109	CCOc1ccc(NC(=O)N2CCC(CN3CCc4ccccc4C3)CC2)cc1	14%
110	Cn1c(=O)c2c(nc(NCc3ccccc3)n2CC(=O)NCc2ccccc2)n(C)c1=O	8%
111	COc1cc(C2NC(=O)NC(C)=C2C(C)=O)cc(OC)c1OC (stereo not drawn)	-9%
112	Cc1cc(OC(C)C(=O)Nc2cccnc2)ccc1Cl (stereo not drawn)	5%
113	O=C(Nc1cc(Cl)ccc1-n1cncn1)c1cn2ccccc2n1	-27%
114	O=C(Nc1cccc(Cl)c1)c1cc(S(=O)(=O)N2CCCc3ccccc32)ccc1F	14%
115	COc1ccc(-c2cc(-c3nc(-c4cc(OC)c(OC)c(OC)c4)no3)[nH]n2)c(OC)c1	12%
116	Cc1ccc(C(=O)Cn2c(C(=O)/C=C/c3ccccc3)nc3ccccc32)cc1	-19%
117	CCOC(=O)[C@H]1[C@H]2COc3cc(OC)ccc3[C@@H]2N2C(=O)c3c(C)cc(C)cc3NC(=O)[C@@]12C	2%
118	CC(C)CC(=O)Nc1nnc(-c2ccco2)s1	-5%
119	NC(=O)CC(NC(=O)Cc1ccc(Br)cc1)c1ccc(NCC2CC2)c([N+](=O)[O-])c1 (stereo not drawn)	7%
120	COc1ccc(NC(=O)c2[nH]c(C)c(C(C)=O)c2C)cc1Cl	-7%
121	COCCN(CC(=O)NCc1ccccc1)C(=O)CCC(=O)Nc1ccccn1	-1%
122	COC(=O)c1nnc(C(=O)NCc2ccccc2)c2[nH]c3ccc(OC)cc3c12	3%

The list is partial; rates above refer to the full screens.
